Source: PubChem BioAssay (several laboratories)
rRNA inh HTS: reduced GFP signal of wild-type E. coli, primary screen, bacterial rRNA inhibitor project, GFP/RFP fluorescence, OD600, single point | hit rate 1.6% among 350,000 | E. coli WT GFP vs humanized-ribosome RFP mutants, 24 h; hits give low values; DMSO median 0, no signal -100 | GFP signal change (wild-type ribosome), % (test concentration not listed);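 active = significant combined selectivity score with lowered wild-type GFP, culture density cut under 30%, mutant RFP and density less affected; inactive = any of these conditions unmet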; also: one replicate is shown; some compounds called inactive have numbers as strong as hits
HNF4A DNA FP: change in binding of human HNF4A to DNA, primary screen, biochemical, fluorescence polarization, FITC-DNA. 1 h. activity change, % at 10 µM. hit rate 0.3% among 360,000; in the data active = activity change above about 30%, passing the limit was not always enough;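 also: controls were the assay level and a saturating level of protein; the project sought stronger binding though the title names inhibitors; some compounds called inactive have numbers as strong as hits; positive values seem to mean higher polarization but the record does not say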
Target sequence (P41235 whole entry, looked up): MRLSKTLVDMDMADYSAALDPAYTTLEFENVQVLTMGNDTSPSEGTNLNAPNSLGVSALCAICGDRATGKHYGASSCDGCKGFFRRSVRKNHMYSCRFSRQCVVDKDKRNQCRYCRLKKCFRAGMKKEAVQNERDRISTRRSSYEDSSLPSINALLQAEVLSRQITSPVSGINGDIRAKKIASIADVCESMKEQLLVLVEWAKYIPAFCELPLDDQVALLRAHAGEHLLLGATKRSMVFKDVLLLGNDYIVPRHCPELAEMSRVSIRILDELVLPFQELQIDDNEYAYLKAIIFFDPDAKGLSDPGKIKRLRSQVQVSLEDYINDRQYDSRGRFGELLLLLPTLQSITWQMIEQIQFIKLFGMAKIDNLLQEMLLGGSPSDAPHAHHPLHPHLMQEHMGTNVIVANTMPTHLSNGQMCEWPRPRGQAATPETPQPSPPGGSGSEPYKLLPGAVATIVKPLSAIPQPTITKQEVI
ALR inh: inhibitors of human ALR sulfhydryl oxidase, primary screen, biochemical, H2O2 detection, HRP-luminol luminescence, single point. FAD-linked sulfhydryl oxidase ALR (Homo sapiens), P55789. purified ALR, DTT oxidation. inhibition, % (concentration not given with the values). hit rate 3.8% among 290,000. AID 485317, 2010;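 active = mean and each replicate at 75% or more; inconclusive = only one of the two met; inactive = neither met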;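 also: stock transfer was 7.5 nL into about 7.5 µL; 0% = neutral wells and 100% = wells with inactivated enzyme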
Target sequence (P55789 whole entry, looked up): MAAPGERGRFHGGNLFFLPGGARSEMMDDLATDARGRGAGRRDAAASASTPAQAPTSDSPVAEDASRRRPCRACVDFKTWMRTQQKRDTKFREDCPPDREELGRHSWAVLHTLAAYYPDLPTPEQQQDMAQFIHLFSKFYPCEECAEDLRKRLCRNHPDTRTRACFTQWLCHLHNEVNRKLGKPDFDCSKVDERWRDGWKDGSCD
FGF22 binding: binders of human FGF22 protein, primary screen, FGF22 synaptogenesis inhibitor project, biophysical, thermal shift, single point; Fibroblast growth factor 22 (Homo sapiens), Q9HCT0; recombinant FGF22 thermal shift, SYPRO orange fluorescence; percent of sucrose octasulfate shift, DMSO zero; calls only at 9.99 µM; hit rate 1.5% among 340,000; AID 651658, 2012;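 active = melting point raised past a set limit in the mean and every replicate; inconclusive = no clear call; three in four hits are not shown here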
Target sequence (Q9HCT0 whole entry, looked up): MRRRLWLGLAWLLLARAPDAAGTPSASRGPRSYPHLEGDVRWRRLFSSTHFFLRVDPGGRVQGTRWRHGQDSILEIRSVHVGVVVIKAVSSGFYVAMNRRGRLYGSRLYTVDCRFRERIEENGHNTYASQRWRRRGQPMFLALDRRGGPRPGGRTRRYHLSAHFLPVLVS
E coli growth: E. coli growth inhibition, primary screen, OD600. OD600 absorbance (test concentration not listed). hit rate 0.21% among 330,000. Escherichia coli growth, 23 h; hits give low values;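 active = OD600 absorbance below the run mean of sample wells minus 3.6 SD, in any replicate, cut at about 0.56 in these data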;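 also: stock transfer was 300 nL into about 60 µL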
Vif A3G: inhibitors of Vif binding to APOBEC3G peptide, primary screen, biochemical, TR-FRET, GST-Vif 1-94, biotin-A3G peptide, dose response retest (AID 1117319). Virion infectivity factor (Human immunodeficiency virus type 1 group M subtype B (isolate …. TR-FRET GST-Vif / biotin-A3G peptide binding; higher % means a stronger effect; test concentration not given here; strong numbers were not always called active. inhibition, %; hits with a dose series show IC50 in µM. hit rate 0.57% among 260,000;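 active = above the screen mean plus three standard deviations and confirmed in dose response; inconclusive = results disagree or hit not tested in dose response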;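 also: Vif residues 1-94 fused to GST binding biotinylated APOBEC3G peptide 110-148; 0% = full assay without inhibitor and 100% = GST in place of GST-Vif; retest series ran down from 100 µM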
MLL AF4-AF9 inh: inhibitors of AF4 peptide binding to AF9, primary screen, biochemical, AlphaScreen, biotin-AF4 peptide, FLAG-AF9, single point | Protein AF-9 (Homo sapiens), P42568 | inhibition, % at 10 µM | hit rate 0.47% among 350,000 | AID 651704, 2012;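 active = every replicate reaching a set inhibition limit, whatever the replicate mean, cut at about 25% in these data; inconclusive = mean inhibition reaches that limit but some replicates miss it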;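 also: 0% = plate neutral control median and 100% = total signal loss; the record names both 10 and 1 µM as test concentration; the first replicate is given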
rRNA inh HTS OD600: recorded beside rRNA inh HTS, whose call it bears; OD600 change, %; measured here: OD600 growth;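 optical density of the mix in the first replicate; 0 = DMSO median and -100 = no signal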
rRNA inh HTS RFP: also measured in rRNA inh HTS; calls as there; RFP signal change, %; measured here: RFP humanized mutant strains;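 first replicate; 0 = DMSO median and -100 = no signal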
Starred values were filed as active, the others as inactive; i = inactive; ? = inconclusive; nt = not tested or not shown. These rows are one share of the data. The share of hits here may be higher or lower than overall.

The first 2 entries, to show the layout:
SMILES	rRNA inh HTS	rRNA inh HTS OD600	rRNA inh HTS RFP	HNF4A DNA FP	ALR inh	FGF22 binding	E coli growth	Vif A3G	MLL AF4-AF9 inh
COC(=O)c1ccc(NC(=O)CN2C(=O)NC3(CCC(C)CC3)C2=O)cc1 (centres undefined)	nt	nt	nt	4.6	-1	i	0.67	nt	0.7
CC1CCN(C(=O)c2ccc3c(=O)n4c(nc3c2)CCCCC4)CC1	15	7	3.0	2.2	-5	i	0.7	nt	0.1

All compounds of this part, from the first entry:
SMILES	rRNA inh HTS	rRNA inh HTS OD600	rRNA inh HTS RFP	HNF4A DNA FP	ALR inh	FGF22 binding	E coli growth	Vif A3G	MLL AF4-AF9 inh
COC(=O)c1ccc(NC(=O)CN2C(=O)NC3(CCC(C)CC3)C2=O)cc1 (centres undefined)	nt	nt	nt	4.6	-1	i	0.67	nt	0.7
CC1CCN(C(=O)c2ccc3c(=O)n4c(nc3c2)CCCCC4)CC1	15	7	3.0	2.2	-5	i	0.7	nt	0.1
O=C(NC(c1ccc(Cl)cc1)c1cnccn1)C1CCN(Cc2cccc(C(F)(F)F)c2)CC1 (centres undefined)	-2	-14	-1.6	3.6	nt	i	nt	nt	-2.0
CCC(=O)N1C[C@@H](C)[C@@H](OC)CN(C)C(=O)c2cc(NC(=O)C3CC3)ccc2OC[C@H]1C	-1	0	-1.0	nt	nt	i	nt	nt	2.2
CCOC(=O)C1=C(C)N(Cc2ccccc2)C(=O)NC1c1ccccc1OS(=O)(=O)c1ccccc1[N+](=O)[O-] (centres undefined)	10	2	-2.7	5.8	-17	i	0.74	nt	7.4
CC1CCN(C(=O)C2COc3ccccc3O2)CC1 (centres undefined)	6	-2	-2.9	0.5	-8	i	0.6	-11%	-0.7
COc1ccc(CN2C[C@@H](O)COC[C@H]3O[C@H](CC(=O)N(C)C)CC[C@@H]32)cc1	2	11	-0.6	nt	nt	i	nt	nt	-4.6
Cc1cccc2cc(COC(=O)c3ccco3)c(=O)[nH]c12	nt	nt	nt	0.7	-4	nt	0.74	19%	nt
O=C(c1ccccn1)N1C[C@H]2[C@@H](c3ccccc31)[C@H](CO)N2C(=O)CC1CC1	5	7	-2.1	nt	nt	i	nt	nt	-4.0
CC[C@@]1(C(=O)OC)N[C@H](CN(C)C(=O)Nc2ccc(F)cc2)[C@@H]2C(=O)N(Cc3ccccc3)C(=O)[C@@H]21	-12	-6	-5.6	-0.9	nt	i	0.71	4%	-0.1
COc1ccc(Cc2c(-c3cccc(Br)c3)nc3c(C)cc(Br)cn23)c(C)c1	0	4	25	8.6	nt	i	nt	nt	1.8
O=C(NC1CCCCC1)c1sc(N2CCOCC2)nc1-c1ccccc1	nt	nt	nt	1.0	-7	nt	0.68	-8%	nt
O=C(c1cc(-c2ccncc2)nc2c(Cl)cccc12)N1CCN(c2ccccc2F)CC1	10	1	1.2	4.0	-3	i	nt	nt	3.5
CCCC(O)C#Cc1cnc2c(c1)C(=O)N([C@H](C)CO)C[C@H](C)[C@H](CN(C)Cc1cccc(C)c1)O2 (some centres undefined)	5	-2	-1.4	nt	nt	i	nt	nt	-0.1
O=C(O)CCC(=O)N1N=C(c2cccs2)CC1c1cn(-c2ccccc2)nc1-c1ccccc1 (centres undefined)	nt	nt	nt	5.9	11	nt	0.72	28%	nt
COc1ccc(OCCNC(=O)/C=C/c2ccccc2)cc1	2	2	1.4	3.2	-7	i	0.67	7%	-1.2
Cn1nc(C(=O)OCc2ccc(Br)cc2F)c2ccccc2c1=O	-8	4	1.5	-1.7	nt	nt	0.71	nt	-3.1
O=C(Nc1ncc2c(n1)CC(c1ccco1)CC2=O)c1ccco1 (centres undefined)	6	8	7.6	1.0	-11	i	0.64	?	-20
COc1ccc(NC(=O)CN(C)C(C)C(=O)N2CCCCC2)cc1 (centres undefined)	nt	nt	nt	-0.1	-10	nt	0.71	0%	nt
Cc1cnc(CN(C)C(=O)CC2C(=O)NCCN2CCCc2ccccc2)[nH]1 (centres undefined)	-1	4	10	0.1	-6	i	0.69	nt	2.7
CC(C)c1ccccc1OCCNC(=O)c1cncc(Br)c1	-34	-48	-5.8	3.2	-24	i	0.7	3%	-2.4
C=C(C)c1cccc(C(C)(C)NC(=O)NCc2ccc(OC)c(OC)c2)c1	nt	nt	nt	2.2	-38	nt	0.72	1%	nt
O=C(Nc1nc2ccccc2[nH]1)C1CCN(S(=O)(=O)c2cccs2)CC1	nt	nt	nt	2.1	-3	nt	0.68	6%	nt
CN(C)C(=O)[C@H]1[C@H](CO)[C@H]2Cn3c(ccc(C4=CCCCC4)c3=O)[C@@H]1N2Cc1ccncc1	0	1	-1.1	nt	nt	i	nt	nt	0.1
CC1CCN(C(=O)CN(Cc2ccc(F)cc2)S(C)(=O)=O)CC1	-4	-1	-0.1	2.7	-11	i	0.72	nt	-4.0
CCN(CC(=O)Nc1c(F)cccc1F)C(=O)CSCc1ccc(C)cc1	-8	-1	2.0	-0.3	nt	i	nt	nt	-3.9
CSCCC(NC(=O)CCNC(=O)c1ccccc1Cl)c1nc2ccccc2[nH]1 (centres undefined)	10	9	0.8	0.3	nt	i	0.7	6%	-17
Cc1ccc(NC(=O)c2sc3nc(N4CCOCC4)c4c(c3c2N)CC(C)(C)OC4)cc1	1	-2	-1.0	-1.0	-13	i	nt	-11%	-1.0
COc1cccc(C(=O)Nc2ccc3c(c2)C(=O)N(C)[C@@H]2CC[C@@H](CC(=O)N[C@@H](C)c4ccccc4)O[C@H]2CO3)c1	-4	-10	1.4	nt	nt	i	nt	nt	-0.8
COc1ccc(-c2cc(C(F)F)n3ncc(C(=O)Nc4cnn(Cc5ccccc5)c4)c3n2)cc1	-1	1	-0.4	nt	-5	i	0.73	-3%	-0.8
CCOc1ccc(NC(=O)c2ccc(N3CC4CC(C3)c3cccc(=O)n3C4)c(NC(=O)c3cccnc3)c2)cc1 (centres undefined)	4	0	-1.7	1.1	-2	i	0.72	nt	0.8
C=CCN=C(C)C1=C(O)CCC1=O	nt	nt	nt	-2.8	-3	nt	0.74	14%	nt
COc1cc(S(=O)(=O)NC(Cc2c[nH]c3ccccc23)C(=O)O)ccc1NC(C)=O (centres undefined)	2	3	0.1	-3.4	-1	i	nt	nt	0.2
CCCn1c(=O)c2ccccc2n2c(Sc3nnnn3-c3ccccc3)nnc12	nt	nt	nt	1.7	1	nt	0.71	20%	nt
CC(C)COC(=O)N(C)C[C@H]1OCc2ccccc2-c2ccccc2C(=O)N([C@H](C)CO)C[C@H]1C	-1	-2	-0.2	nt	nt	i	nt	nt	-3.6
Cc1cc(C(=O)N2CCCC(N3CCN(c4cccc(Cl)c4)CC3)C2)nn1C (centres undefined)	-1	0	0.9	-0.7	22	i	0.7	0%	-0.8
O=C(CCc1nc2ccccc2c(=O)[nH]1)NCCN1C(=O)S/C(=C\c2ccccc2Cl)C1=O	8	6	0.6	-5.0	0	i	0.63	0%	-1.4
CC(=O)Nc1cccc(S(=O)(=O)N2CCCCCC2)c1	nt	nt	nt	-2.3	-2	nt	0.75	14%	nt
Clc1ccc(/C=C/c2ncc[nH]2)c(Cl)c1	-33	-58	5.9	-2.7	2	i	0.55	-4%	3.5
Cc1ccc(CNC(=O)c2c(-c3ccccc3)sc3ccccc23)o1	-15	-17	-2.6	-4.6	2	i	0.68	nt	-1.4
CCOC(=O)C1=CCN(S(=O)(=O)c2ccccc2Br)C1c1ccc(Cl)cc1 (centres undefined)	-21	-25	-10	nt	nt	i	nt	nt	-43
COc1ccc(OC)c(-n2c(CNC3CCN(Cc4ccccc4)CC3)nc3ccccc3c2=O)c1	nt	nt	nt	1.3	-97	nt	0.73	2%	nt
CCNC(=O)[C@@H]1[C@@H](CO)[C@@H]2Cn3c(ccc(-c4ccccc4)c3=O)[C@@H]2N1Cc1ccccn1	4	4	-0.2	nt	nt	i	nt	nt	-0.3
Cc1cc(C)nc(-n2nc(C)c3c(=O)[nH]c(C(F)(F)F)nc32)n1	nt	nt	nt	1.1	-6	nt	0.76	2%	nt
O=[N+]([O-])c1cccc(S(=O)(=O)N/N=C/c2ccc(O)cc2)c1	17	2	0.8	-1.2	93*	i	nt	2%	-4.6
C[C@@H]1CN([C@@H](C)CO)C(=O)Cc2cc(NC(=O)Nc3ccccc3)ccc2O[C@H]1CN(C)Cc1ccccc1	-26	-40	22	nt	nt	i	nt	nt	11
CC(C)NC(=O)Nc1ccc2c(c1)C(=O)N([C@@H](C)CO)C[C@H](C)[C@@H](CN(C)S(=O)(=O)c1ccccc1)OCCCC[C@H](C)O2	-1	0	-1.5	nt	nt	i	nt	nt	-1.3
Cc1cccc(-c2nc(Nc3ccc(N4CCOCC4)cc3)c3ccccc3n2)c1	nt	nt	nt	3.6	nt	nt	0.71	11%	nt
COc1ccccc1S(=O)(=O)N(C)C[C@@H]1OCc2cn(nn2)CCCC(=O)N([C@H](C)CO)C[C@@H]1C	0	3	-0.5	nt	nt	i	nt	nt	1.0
COCC(=O)Nc1ccc(N2CCN(c3ccccc3)CC2)c(F)c1	12	23	0.3	0.2	-6	i	0.7	1%	-16
CC(C)C[C@H]1CN(CCCC[C@H]2CNC(=O)C(=O)N2CCc2ccc(O)cc2)C(=O)C(=O)N1CCC1CCCCC1	-43	-65	-7.4	5.5	nt	i	nt	nt	4.9
CCCCNc1nccnc1-c1cccc(C=O)c1	11	9	-0.2	1.6	nt	i	nt	nt	-3.0
Cc1sc2nc(C3CC3)nc(SCC(=O)N3CCc4ccccc4C3)c2c1C	nt	nt	nt	-1.5	41	nt	0.68	?	nt
O=C(NC1CCCCC1)C(c1ccncc1)N(Cc1ccc(F)cc1)C(=O)c1ccccn1 (centres undefined)	-1	-5	1.1	0.0	1	i	0.68	1%	1.0
O=S(=O)(CS(=O)(=O)Oc1ccccc1)Oc1ccccc1	10	11	-0.2	-1.6	nt	i	nt	-6%	-3.0
N#C[C@@H]1[C@@H](c2ccc(-c3cncnc3)cc2)[C@H](CO)N1C(=O)C1CCCC1	2	-1	-0.1	nt	nt	i	nt	nt	-2.4
CCOc1ccc(C2=Nn3c(CC)nnc3SC2)cc1	-17	-14	5.0	2.1	26	i	0.7	nt	2.2
O=C1c2ccccc2C(O)(Cc2ccccc2)N1CCCN1CCOCC1 (centres undefined)	13	2	-5.0	-4.2	6	i	0.72	-1%	-58
O=Cc1ccc(OCC(=O)N2CCOCC2)cc1	-4	-4	-2.6	-1.1	-24	i	0.67	-5%	-0.3
CCCCCCSc1ccc([C@H]2N[C@@](Cc3ccccc3)(C(=O)OC)[C@H]3C(=O)N(C)C(=O)[C@@H]23)cc1OC	7	1	-0.4	1.3	-1	i	nt	nt	2.5
CC(NC(=O)Nc1nnc(C(F)(F)F)s1)N1C(=O)C2C3C=CC(C3)C2C1=O (centres undefined)	3	4	-1.4	-0.2	1	nt	0.71	28%	nt
COc1ccc(CN(C)C[C@H]2OCCCC[C@H](C)Oc3ccc(NC(=O)c4ccncc4)cc3C(=O)N([C@@H](C)CO)C[C@H]2C)cc1	-4	-3	-0.1	nt	nt	i	nt	nt	1.1
